Compound activity: PubChem, Southern Research Institute
Mtb growth: Confirmatory growth inhibition assay against Mycobacterium tuberculosis H37Rv, potency (AID 1949). one-dose inhibition, % at 10 µg/mL; IC50 in µg/mL for titrated hits. hit rate 1.6% among 100,000. most inactive calls were filed without a number and no value below 0 was filed;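 active = confirmed in a dose series; inconclusive = about 50% or more but not retested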;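 note: bacteria grown 7 days with compound before Alamar blue readout; 0% = untreated bacteria and 100% = reference antibiotic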
* marks the source's active call; other numbers are inactive results; i = inactive; ? = inconclusive.

SMILES	Mtb growth
CCOC(=O)Cc1csc(NC(=O)CCCN2C(=O)c3cccc4cccc(c34)C2=O)n1	i
CC(=O)N1CCC(=O)c2cc3ccccc3cc21	i
COc1ccc(C(=O)CCN2CCN(c3ccccc3F)CC2)cc1	5.64µg/mL*
Nc1ccc(N2CCN(Cc3ccccc3Cl)CC2)c(Cl)c1	4.3%
Cc1nc(SCc2ccc(Cl)c(Cl)c2)n[nH]1	2.9%
COC(=O)COc1ccc(=O)n(-c2ccccc2)n1	i
COC(=O)c1ccc(N(C)S(=O)(=O)c2ccc(C)cc2)cc1	1.4%
Cc1ccccc1OCC(=O)NC(=S)Nc1ccc(Br)cc1Cl	i
CC(=O)Nc1ccc(-c2nnc(SCc3ccc(C(C)(C)C)cc3)n2C)cc1	i
CN(C)CCCn1c(=N)n(CC(O)C(C)(C)C)c2ccccc21 (stereo not drawn)	i
COC(=O)c1ccccc1NC(=S)N1CCOCC1	i
CS(=O)(=O)N(CC(=O)N1CCN(c2cccc(Cl)c2)CC1)Cc1ccccc1	i
CC1CN(C(=S)Nc2cccc(Cl)c2)CC(C)O1 (stereo not drawn)	i
Brc1cccc(OCCOCCN2CCOCC2)c1	i
CC1(C)CN=C(NCCNC2=NCC(C)(C)S2)S1	i
COc1ccc(NS(=O)(=O)c2ccc(Cl)cc2Cl)cc1	2.0%
Cc1cc2c(=O)n(Cc3ccco3)c(SCC(=O)N3CCc4ccccc43)nc2s1	i
CC(Oc1cccc(Cl)c1)C(=O)N1CCN(c2ccccn2)CC1 (stereo not drawn)	i
Cc1sc2nc(SCC(=O)NC3CCCC3)n(-c3ccccc3)c(=O)c2c1C	i
O=C(NCCCc1ccccc1)c1ccc2c(c1)OCO2	i
CCCC(=O)c1ccc(OCc2nc3ccccc3[nH]2)cc1	i
CCOc1ccc(NC(=O)CN(c2cc(Cl)ccc2OC)S(C)(=O)=O)cc1	i
Cn1c(CC(=O)Nc2ccc(Cl)c(Cl)c2)nnc1SCC(=O)Nc1c(F)cc(F)cc1Br	1.8%
CC(=O)NCCSCCNC(C)=O	0.1%
Oc1ccc(C(c2ccc(O)cc2)C(Cl)(Cl)Cl)cc1	5.4%
COc1ccc(CCNS(=O)(=O)c2ccc3ccccc3c2)cc1OC	i
CCNCc1cc(I)c(OCC)c(OCC)c1	i
CCCCC1CCC(C(=O)N(Cc2ccc(C)o2)C2CCS(=O)(=O)C2)CC1 (stereo not drawn)	i
CC(C)C(=O)Nc1ccc(C(=O)NCc2ccc(Cl)cc2)cc1	2.1%
CCOc1ccc(C(C)=O)cc1Cc1c(O)[nH]c(=S)[nH]c1=O	3.4%
O=C(Nc1cccc(C(F)(F)F)c1)Nc1nn(Cc2ccc(Cl)cc2)cc1Br	i
C/C(=N\NS(=O)(=O)c1ccc(C)cc1)c1ccc(C)s1	1.3%
O=C(NCC1OCCc2ccccc21)c1ccc(NC(=O)c2ccco2)cc1 (stereo not drawn)	i
Cc1ccc(C(=O)NC(=S)NCc2ccccc2)c(C)c1	i
COc1ccc(-c2c(C(F)(F)F)oc3cc(OCC(C)=O)ccc3c2=O)cc1OC	i
Cc1c(C=O)c2ccccc2n1CC(=O)O	i
O=C(Nc1cccc(C(F)(F)F)c1)C1(c2ccccc2)CCOCC1	i
O=C(Nc1nnc(Cc2ccc(Cl)cc2)s1)c1cc(Cl)ccc1Cl	28.6%
Nc1nnc(SCC(=O)N2CCN(C(c3ccccc3)c3ccccc3)CC2)s1	1.4%
CCc1ccc(NC(=S)/N=C(\N)Nc2nc(C)c3cc(CC)ccc3n2)cc1	?
Nc1ncnc2c1ncn2Cc1ccccc1	i
NS(=O)(=O)c1ccc(NC(=O)CN2CCN(c3ccc([N+](=O)[O-])cc3)CC2)cc1	i
CCCN(CCC)S(=O)(=O)c1c(C)cc(C)cc1C	i
Cc1c(C(=O)NCCO)sc2nc3n(c(=O)c12)CCC3	i
O=C(CSc1nnc(-c2ccccc2)n1-c1ccccc1)Nc1ccccc1C(F)(F)F	i
O=C(CCCN1C(=O)c2ccccc2C1=O)Nc1ccccc1C(=O)NC1CCCCCC1	i
COc1ccc(CC(=O)Nc2ccc(Oc3ccc4c(c3)C(=O)NC4=O)cc2)cc1	i
CCOc1ccc(C(C)(N)C(=O)O)cc1 (stereo not drawn)	0.4%
C=CCc1cc(OC)ccc1OCCOCCN1CCC(C)CC1	i
C=CCN1C(=O)C(O)(CC(=O)c2ccccn2)c2ccccc21 (stereo not drawn)	?
C=CCc1cc(/C=C2\C(=O)NC(=O)N(c3ccc(Br)c(C)c3)C2=O)cc(OC)c1OCC(=O)O	i
O=C(c1cc([N+](=O)[O-])ccc1N1CCN(CCO)CC1)N1CCOCC1	0.1%
CC(=O)c1ccc(NC2=C(N3CCCC3)C(=O)c3ccccc3C2=O)cc1	i
Clc1ccccc1CSC1=NCCN1	i
N#Cc1cc2c(nc1SCC(=O)Nc1ccc(S(=O)(=O)Nc3ncccn3)cc1)CCCC2	i
CCOC(=O)C(=O)c1c(C)cc2ccccn12	i
Cc1ccc(S(=O)(=O)Cc2cccc([N+](=O)[O-])c2)cc1	i
Cc1ccc(C)c(Oc2coc3cc(OC(=O)c4cccc(Br)c4)ccc3c2=O)c1	2.6%
CC(NC(=O)COc1ccc([N+](=O)[O-])cc1)c1ccccc1 (stereo not drawn)	0.3%
CCCCNCCOCCSc1ccc(Cl)cc1	i

Remaining list, next part:
SMILES	Mtb growth
O=c1[nH]cnc2scc(-c3ccc4ccccc4c3)c12	17.9%
Brc1ccccc1-c1nnc2sc(-c3ccccn3)nn12	i
CC(C(=O)OCc1ccccc1)n1cnc2scc(-c3ccc(Br)cc3)c2c1=O (stereo not drawn)	1.51µg/mL*
O=C(Nc1ccc(F)cc1)c1cccnc1N1CCCCC1	i
CC(=O)c1ccc(NC(=O)c2cccc(OC(C)C)c2)cc1	4.3%
C=CCc1ccccc1OCc1ccc(C(=O)NC2CCCCC2)cc1	i
CC(C)(C)N1C(=O)c2ccc(-c3nc4ccccc4o3)cc2C1=O	i
CC(C)Cn1cc(C=O)c2ccccc21	i
COC(=O)c1ccccc1NC(=O)CSc1nnc(CNC(=O)c2ccc(OC)cc2)n1C	i
CCc1ccc(NC(=O)c2ccccc2NC(=O)c2cccc(OC)c2)cc1	i
CC12CCC(C(=O)Nc3nc(-c4ccccc4)cs3)(OC1=O)C2(C)C (stereo not drawn)	i
CCOC(=O)C1=C(C)Nc2ncnn2C1c1sccc1C (stereo not drawn)	3.6%
O=C(COC(=O)c1cccc(NC(=O)C(F)(F)F)c1)c1ccccc1	i
Cc1cccc(NC(=O)Cn2c(=O)n(C)c3ccccc32)c1	i
C=CCn1c(SCC(N)=O)nnc1-c1ccc(Br)cc1	i
Cc1cccc(NC(=S)Nc2ccccn2)c1C	22.3%
CCCCc1nnc(NC(=O)COc2ccccc2OCC)s1	i
Cc1occc1C(=O)N1CCN(C(=O)C2CCCO2)CC1 (stereo not drawn)	i
Cc1c(NC(=S)NNC(=O)c2ccccc2)c(=O)n(-c2ccccc2)n1C	i
CC(C)(C)C(=O)NCCCc1nc2ccccc2n1Cc1cccc2ccccc12	2.5%
COc1cccc(OC)c1C(=O)NC(=S)Nc1cccnc1	i
O=C(O)c1ccc(CN(c2ccccc2)S(=O)(=O)c2ccccc2)cc1	i
O=S(=O)(NCCSc1nnc(-c2ccco2)n1-c1ccccc1)c1ccccc1	i
COc1ccc(N(CC(=O)NCCSCc2ccco2)S(=O)(=O)c2ccccc2)cc1	i

Six successive compounds already listed:
SMILES	Mtb growth
Cc1c(NC(=S)NNC(=O)c2ccccc2)c(=O)n(-c2ccccc2)n1C	i
CC(C)(C)C(=O)NCCCc1nc2ccccc2n1Cc1cccc2ccccc12	2.5%
COc1cccc(OC)c1C(=O)NC(=S)Nc1cccnc1	i
O=C(O)c1ccc(CN(c2ccccc2)S(=O)(=O)c2ccccc2)cc1	i
O=S(=O)(NCCSc1nnc(-c2ccco2)n1-c1ccccc1)c1ccccc1	i
COc1ccc(N(CC(=O)NCCSCc2ccco2)S(=O)(=O)c2ccccc2)cc1	i

Later entries
SMILES	Mtb growth
Cc1c(C(=O)OC(C)C)sc2nc[nH]c(=O)c12	2.8%
Cc1c(NC(=O)c2cncc(Br)c2)cccc1-c1nc2ccccc2o1	i
CCc1ccc(N2CC(C(=O)Nc3ccc(OC)cc3OC)CC2=O)cc1 (stereo not drawn)	i
O=C(CSc1nnc(CCCOc2ccc(Cl)cc2Cl)o1)c1ccc(Br)cc1	i
O=c1[nH]c2ccc(Cl)cc2c(-c2ccccc2)c1N1CCN(c2ccccn2)CC1	i
NC1=NC(=O)CC(C(=O)NCc2ccccc2)S1 (stereo not drawn)	i
Cc1cccc(-n2c(SCC(=O)NC(C)(C)C)nc(O)cc2=O)c1	6.4%
COc1ccc(C(=S)N2CCN(C(=S)Nc3ccccc3)CC2)cc1	i
COc1ccc2c([N+](=O)[O-])c(Nc3ccc(F)cc3)[nH]c2c1	i
COc1ccc(OC)c(NC(=O)c2ccccc2NS(=O)(=O)c2ccc(C)cc2)c1	i
O=C(CSc1nc2ccccc2s1)Nc1ccc(S(=O)(=O)Nc2ccccn2)cc1	i
NC(=O)COc1ccc(Br)cc1	3.6%

Next section; the last 6 above are carried over.
SMILES	Mtb growth
Cc1cccc(-n2c(SCC(=O)NC(C)(C)C)nc(O)cc2=O)c1	6.4%
COc1ccc(C(=S)N2CCN(C(=S)Nc3ccccc3)CC2)cc1	i
COc1ccc2c([N+](=O)[O-])c(Nc3ccc(F)cc3)[nH]c2c1	i
COc1ccc(OC)c(NC(=O)c2ccccc2NS(=O)(=O)c2ccc(C)cc2)c1	i
O=C(CSc1nc2ccccc2s1)Nc1ccc(S(=O)(=O)Nc2ccccn2)cc1	i
NC(=O)COc1ccc(Br)cc1	3.6%
COc1ccc(C(=O)Nc2cccc(-c3cn4ccccc4n3)c2)cc1	0.9%
CCOC(=O)c1ccc(NC(=O)c2c(NC(=O)CN3CCN(C)CC3)sc3c2CCC3)cc1	i
CCOc1ccccc1N1CCN(S(=O)(=O)c2cc(OC)c(Br)cc2OC)CC1	3.3%
CCn1c(CNC(=O)Cc2ccc(OC)cc2)nnc1SCC(=O)NC1CCCCC1	i
O=C(CSCc1cccc(Cl)c1)Nc1ccc(F)c(Cl)c1	i
OCCN(C(=S)Nc1ccc2nccnc2c1)c1ccccc1	1.7%
CCCCN(CCCC)C(=N)N=C(N)N	i
Cc1ccc(SCC(=O)NCc2nc(-c3ccc(Cl)cc3)no2)cc1	0.7%
O=C(NCc1ccco1)c1cc2cc(Br)ccc2oc1=O	i
O=C(Nc1ccccc1Br)c1cc2cc(Cl)cc(Cl)c2oc1=O	i
O=C(COc1ccc([N+](=O)[O-])cc1)Nc1ccc(I)cc1C(F)(F)F	i
CCC(c1ccccc1)c1nc(-c2cccnc2)no1 (stereo not drawn)	i

Random excerpt: six records from the list.
SMILES	Mtb growth
O=C(CSCc1cccc(Cl)c1)Nc1ccc(F)c(Cl)c1	i
OCCN(C(=S)Nc1ccc2nccnc2c1)c1ccccc1	1.7%
O=C(NCc1ccco1)c1cc2cc(Br)ccc2oc1=O	i
CCOC(=O)c1ccc(NC(=O)c2c(NC(=O)CN3CCN(C)CC3)sc3c2CCC3)cc1	i
CCCCN(CCCC)C(=N)N=C(N)N	i
Cc1ccc(SCC(=O)NCc2nc(-c3ccc(Cl)cc3)no2)cc1	0.7%

Additional records:
SMILES	Mtb growth
O=C1CC(c2cccs2)Sc2nc(-c3ccc(F)cc3)nn21 (stereo not drawn)	i
COc1cc(OC)c(S(=O)(=O)NC(C)C)cc1C(=O)O	i
CCCOc1ccccc1C1C(C(=O)OC)=C(C)NC2=C1C(=O)CC(c1ccc(F)cc1)C2 (stereo not drawn)	1.3%
Cn1c(Cc2ccccc2)nnc1Sc1ccc([N+](=O)[O-])cc1S(=O)(=O)N1CCOCC1	i
CC(=O)Oc1c(C(=O)c2ccccc2)sc2ccccc12	0.71µg/mL*
Cc1ccc(NS(=O)(=O)c2cc(C(=O)O)cc(C)c2C)cc1	i
CN1CCN(C(=O)C(Cc2ccccc2)N2C(=O)c3ccccc3C2=O)CC1 (stereo not drawn)	i
O=C(O)C1CC=CCC1C(=O)Nc1ccc2c(c1)OCO2 (stereo not drawn)	1.2%
O=C(CSc1ncnc2sc3c(c12)CCCC3)NCc1ccco1	i
COc1cccc(C2(c3cccc(OC)c3)CC2C(=O)Nc2cccc3ccccc23)c1 (stereo not drawn)	1.9%
CC(C)OC(=O)c1ccc(COC(=O)c2ccco2)cc1	?
Cc1nnc(SCC(=O)n2c3c(c4ccccc42)CC(C)CC3)s1 (stereo not drawn)	i
c1ccc(Cc2nnc3sc(-c4cccnc4)nn23)cc1	0.5%
COc1ccc(OC)c(NC(=O)NNC(=S)Nc2ccc(F)cc2F)c1	i
O=C(Nc1ccccc1)c1c2c(nc3ccccc13)-c1ccccc1CC2	i
COc1ccc(NC(=O)c2ccc(I)o2)c(OC)c1	i
Cc1scc(C(=O)Nc2ccccn2)c1-c1ccccc1	24.9%
Cc1nc(SCC(=O)c2ccccc2)nc2c1CCCC2	i
c1ccc(CSc2nc3ccccc3s2)nc1	i
CC(C)Cc1ccc(S(=O)(=O)Nc2ccc([N+](=O)[O-])cc2)cc1	i
O=C(Nc1ccc(N2CCN(C(=O)c3cccs3)CC2)cc1)c1ccc(OCc2ccccc2)cc1	i
CC12CN3CC(C)(CN(C1)C3c1ccc3c(c1)OCO3)C2=O (stereo not drawn)	i
COc1ccccc1N1CCN(CCNC(=O)Nc2cc(C)ccc2Cl)CC1	42.7%
Cc1cccc(C)c1OCC(=O)NCc1ccc(Cl)cc1	8.8%
O=C(Nc1ccccc1C(=O)OCc1ccc(Br)cc1)c1ccccc1	1.2%
N#Cc1ccc(CSc2nnc(COc3ccccc3)n2-c2ccccc2)cc1	i
COc1ccc2nc(NC(=O)c3nc(SC)ncc3Cl)sc2c1	i
Cc1cccn2c(=O)c3cc(C(=O)NCCCN4CCOCC4)sc3nc12	i
CCOc1ccc(S(=O)(=O)N(C)C2CCCCC2)c2ccccc12	i
Cc1ccc(C)c(S(=O)(=O)NCCOc2nc(NC(C)C)nc(NC(C)C)n2)c1	i
O=C(O)c1ccc(CNCc2c(Cl)cccc2Cl)cc1	i
O=C(NC12CC3CC(CC(C3)C1)C2)c1ccc(OCc2ccccc2)cc1	i

The list is partial; count on the stated rates, not on these rows.
